# Screening results as filed in PubChem.
# PKD1 inh – inhibitors of human PKD1 kinase, biochemical, fluorescence polarization | PKD1 kinase fluorescence polarization assay | inhibition, %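 (about 10 µM by stock and volumes)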 | Serine/threonine-protein kinase D1 (Homo sapiens), Q15139 | 0.056% of 200,000 active;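 active = inhibition of 50% or more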;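 note: controls were vehicle for no effect and a reference inhibitor for full effect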
# Target sequence (Q15139 whole entry, looked up): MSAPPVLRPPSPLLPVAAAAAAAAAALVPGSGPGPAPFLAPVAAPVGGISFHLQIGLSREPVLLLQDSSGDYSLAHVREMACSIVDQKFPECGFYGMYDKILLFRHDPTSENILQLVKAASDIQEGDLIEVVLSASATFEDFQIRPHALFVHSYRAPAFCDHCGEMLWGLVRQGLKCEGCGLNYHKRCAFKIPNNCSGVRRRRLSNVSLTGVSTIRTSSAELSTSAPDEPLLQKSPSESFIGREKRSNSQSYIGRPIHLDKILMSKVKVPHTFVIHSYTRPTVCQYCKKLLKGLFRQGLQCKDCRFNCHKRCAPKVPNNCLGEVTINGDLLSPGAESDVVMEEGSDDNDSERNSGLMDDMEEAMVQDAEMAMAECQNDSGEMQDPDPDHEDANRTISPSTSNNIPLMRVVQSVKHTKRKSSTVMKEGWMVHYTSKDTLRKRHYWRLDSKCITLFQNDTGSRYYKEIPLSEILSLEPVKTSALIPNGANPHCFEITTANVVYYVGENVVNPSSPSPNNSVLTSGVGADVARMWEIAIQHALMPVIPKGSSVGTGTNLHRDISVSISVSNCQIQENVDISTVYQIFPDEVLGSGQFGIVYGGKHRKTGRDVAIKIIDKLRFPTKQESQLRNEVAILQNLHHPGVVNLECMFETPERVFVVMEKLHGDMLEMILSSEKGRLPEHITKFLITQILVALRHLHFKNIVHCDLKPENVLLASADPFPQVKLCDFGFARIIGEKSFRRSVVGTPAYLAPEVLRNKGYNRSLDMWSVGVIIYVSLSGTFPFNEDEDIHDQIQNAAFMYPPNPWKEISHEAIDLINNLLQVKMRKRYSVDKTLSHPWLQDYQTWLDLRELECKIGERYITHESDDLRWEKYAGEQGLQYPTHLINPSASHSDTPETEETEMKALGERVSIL
# HSV augment – enhancers of HSV replication in host cells, fold increase, host cell viability; AID 1956, 2009; maximum fold increase; HSV replication augmentation in cells; 0.005% of 220,000 active;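 active = peak rise of 1.5-fold or more in the series; tested in PC3 cells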;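 note: first round at 10 µM; read as green reporter fluorescence; hits show the peak of a series up to 25 µM; 1 = signal of infected wells without compound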
# INS promoter inh – inhibitors of insulin promoter-driven GFP, primary screen, imaging, TRM-6 cells (human fetal islet line), eGFP reporter, cell count; reporter expression induced with tamoxifen; inhibition, % at 2 µM; 0.9% of 130,000 active;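 active = inhibition above the mean plus 3 SD, with well images judged a real hit on visual review, cut at about 60% in these data, passing the limit was not always enough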
# RGS16-Gao HTS – modulators of RGS16 binding to Galphao, primary screen, biochemical, human proteins, multiplexed bead flow cytometry | Regulator of G-protein signaling 16 (Homo sapiens) + Guanine nucleotide-binding protein … | bead-based flow cytometry RGS16-Galphao binding, fluorescence; actives lie on both sides | binding response (% of control), % at 10 µM | 0.38% of 220,000 active | AID 1441, 2008;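 active = below 25% or above 175%, edge rows of some plates excepted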;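 note: Galphao activated by GDP with aluminum fluoride before binding; 100% = wells without compound and 0% = beads without RGS; some results beyond the cut were filed as inactive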
# GALR2 agonist – GALR2 receptor agonists, primary screen, cell-based. Galanin receptor type 2 (Homo sapiens), O43603. activation, %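 (tested at 5 µM)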. GALR2-expressing cells, agonist activation read-out. 0.48% of 140,000 active. AID 803, 2007;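 active = above mean plus 3 SD of all compounds, about 5% in these data, not always enough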;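 note: 0% = vehicle buffer wells and 100% = reference agonist at full effect; tested in CHO reporter cells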
# INS promoter inh cell count – recorded beside INS promoter inh, whose call it bears; normalized cell count, %; measured here: cell count, toxicity; reference of the scale not given here;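 cells exposed to compound for 48 h; stained nuclei by imaging scaled within each plate; lower means fewer cells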
# HSV augment primary fold – recorded beside HSV augment, whose call it bears; fold increase; compound at 10 µM; measured here: primary screen fold increase 10 uM; tested in PC3 cells;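 GFP signal in the first replicate; 1 = infected wells without compound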
# The depositor's hits bear a star; i = inactive; · = no result given; & = joins results of further samples.
# The line under a structure holds: PKD1 inh	HSV augment	HSV augment primary fold	INS promoter inh	INS promoter inh cell count	RGS16-Gao HTS	GALR2 agonist
COc1ccc(-c2noc(=O)n2Cc2cc(C)ccc2C)cc1
    -3	i	0.78	-11	93	99	·
O=c1cnnc(Nc2ccc(Nc3ccccc3)cc2)[nH]1
    -12	i	0.96	·	·	94	·
N=c1ccn(Cc2ccc([N+](=O)[O-])cc2)cc1
    ·	i	0.77	·	·	103	·
O=C1c2cccc3cccc(c23)C(=O)N1CCN1CCN(C(=S)Nc2ccc(Cl)cc2)CC1
    -2	i	0.86	·	·	111	-1.9
CC(C)(O)C#Cc1ccc(CN2CCN(C3CCCCC3)C(CCO)C2)s1 (centres undefined)
    -1	i	1	-52	108	102	·
Nc1c(C(=O)Nc2ccc(Br)cc2)sc2nc(-c3ccco3)ccc12
    -17	i	1.1	5	94	82	1.6
O=C(Cn1c(=O)oc2ccccc21)NCCc1ccccc1Cl
    -7	i	1	·	·	97	·
O=C(NN=C1CCN(Cc2ccccc2)CC1)c1cc2ccccc2cc1O
    -5	i	1	19	120	75	-0.7
O=C(N/N=C/c1ccc2c(c1)OCO2)c1ccc(COc2cccc3cccnc23)cc1
    -2	i	1.1	11	109	98	·
O=C(CN(Cc1ccccc1)C(=O)c1cc2c(s1)CCC2)NCc1cccs1
    -4	i	0.85	-44	96	96	-1.3
COc1ccc(NC(=O)CSc2nc(N)c(NC(=O)c3cccs3)c(=O)[nH]2)cc1
    ·	i	1.1	·	·	111	·
O=C(CCS(=O)(=O)c1cccc2nonc12)N1CCN(c2ccc(F)cc2)CC1
    9	i	1	·	·	132	-1.0
CC[n+]1c(C)n(C)c2cc(S(=O)(=O)N(C)C)ccc21
    -1	i	1	·	·	107	·
N/C(=N\OC(=O)CSc1ccccc1)c1ccc([N+](=O)[O-])cc1
    -2	i	0.96	11	72	207	-1.2
CN1C(=O)C(O)(CC(=O)/C=C\c2ccc3c(c2)OCO3)c2ccccc21 (centres undefined)
    -6	i	0.84	·	·	102	·
C(=N\N1CCN(c2ccccn2)CC1)/c1ccco1
    0	i	1	·	·	100	·
Cc1cc(C)nc(N/N=C/c2ccco2)n1
    -12	i	0.91	·	·	82	-2.8
COCCn1cc(C(=S)N2CCOCC2)c2ccccc21
    2	i	0.64	-22	82	103	-2.2
Cc1ccc(NC(=O)CN(C)CC(=O)Nc2ccc(N3CCOCC3)cc2)c(C)c1
    0	i	1	-6	171	106	-1.6
COc1ccc(CN2CCOCCOCCN(Cc3ccc(OC)cc3)CCOCCOCC2)cc1
    ·	i	1.1	·	·	111	·
O=C(NCCc1ccncc1)C(F)(F)F
    -8	i	0.93	·	·	104	0.5
O=C(CCCOc1ccccc1)Nc1ccncc1
    -8	i	0.87	·	·	103	-2.5
CCOC(=O)N1CCC(NC(=O)Cn2cccc2C(=O)c2ccccc2C)CC1
    2	i	1	-100	134	103	-1.5
COc1ccc(N(C(=O)COc2cccc(C)c2)S(=O)(=O)c2ccc(C)cc2)cc1
    1	i	1	21	131	92	-0.3
CCn1c2ccccc2c2cc(/C=N/n3cn[nH]c3=S)ccc21
    -6	i	0.97	-6	129	96	0.2
Nc1nc(SCC(=O)c2cc3ccccc3o2)n[nH]1
    10	i	0.98	-12	136	102	·
CCc1ccc(S(=O)(=O)N(C(=O)c2ccncc2)c2ccc(OC(=O)c3ccncc3)cc2)cc1
    -5	i	0.87	24	135	91	-1.0
Cc1ccc(S(N)(=O)=O)cc1NC(=O)/C=C/c1ccc2c(c1)OCO2
    0	i	1	44	92	107	·
CC(c1ccccc1)N1CCn2c(nc3cc(NC(=O)NC4CCCCC4)ccc32)C1 (centres undefined)
    -5	i	0.92	-31	100	99	-1.2
CN1CCN(CCC(=O)Nc2cccc(Br)c2)CC1
    ·	i	0.98	·	·	102	·
S=C(NCC1CCCO1)Nc1ccc(Nc2ccccc2)cc1 (centres undefined)
    5	i	0.96	·	·	102	·
CCOc1ccccc1CN1CCN(Cc2[nH]c3ccccc3c2C)CC1CCO (centres undefined)
    3	i	0.83	·	·	102	·
CCOC(=O)c1c(C)[nH]c(C)c1C(=O)COc1ncnc2ccccc12
    -4	i	0.97	60	72	106	·
CCCc1nn(-c2ccccc2)c2c1C(c1cccs1)C(C#N)=C(N)O2 (centres undefined)
    -3	i	1.1	-14	85	95	-0.8
O=C(N/N=C/c1cccc(OC(=O)N2CCOCC2)c1)c1cccs1
    -5	i	0.96	-45	75	124	-1.3
CCC(C)(CC(=O)O)CC(=O)Nc1cc(C(F)(F)F)cc(C(F)(F)F)c1 (centres undefined)
    ·	i	0.97	·	·	99	·
O=C(Nc1ncn[nH]1)c1ccccc1Br
    1	·	·	0	50	100	-0.5
O=C(COc1ccc(Cl)cc1)N1CCCCC1
    2	i	0.88	0	107	100	-1.6
Cc1ccc(Cl)cc1NC(=S)N(CCN(C)C)Cc1cccs1
    1	i	0.8	·	·	99	·
COc1ccc(Cc2c(O)nc(SCC(=O)NC34CC5CC(CC(C5)C3)C4)[nH]c2=O)cc1
    -3	i	1.1&0.87	·	·	90&103	·
O=C1CC(c2ccc(Cl)cc2)n2nc(NS(=O)(=O)c3ccc(F)cc3)nc2N1 (centres undefined)
    -10	i	0.99	-19	59	103	-1.9
Cc1c(-c2nc(-c3ccc(C(F)(F)F)cc3)no2)n(C)oc1=O
    ·	i	0.89	·	·	99	·
CC(C)(C)C(=O)Nc1cccc(-c2nc3ccccc3[nH]2)c1
    -2	i	1	-7	34	106	-1.2
COc1cc(NC(=O)CSc2nc(C)cs2)cc(OC)c1
    -3	i	0.97	-34	147	102	1.3
CCCCCOC(=O)Cc1c(O)c2ccccc2n(C)c1=O
    -8	i	1	·	·	92	-4.0
CCCCc1ccc(-c2nc(NC(=O)C3C4CCC(O4)C3C(=O)O)sc2C)cc1 (centres undefined)
    -16	i	0.9	14	90	106	-1.1
CCN(/N=C/C=C/c1ccccc1)c1cc(=O)n(C)c(=O)[nH]1
    -3	i	0.96	-26	137	99	-0.6
O=C1[C@H](CC[C@H](O)c2ccc(F)cc2)[C@@H](c2ccc(O)cc2)N1c1ccc(F)cc1
    ·	i	0.7	·	·	103	·
COc1ccc(Cl)cc1NC(=O)COc1cccc(-n2cnnn2)c1
    6	i	0.77	47	81	100	1.6
COCCNC(=O)CSc1nc2ccccc2c(=O)n1-c1cccc(OC)c1
    -6	i	1.2	·	·	98	-1.5

# Pulled by structure from the entries so far:
# The line under a structure holds: PKD1 inh	HSV augment	HSV augment primary fold	INS promoter inh	INS promoter inh cell count	RGS16-Gao HTS	GALR2 agonist
O=C1CC(c2ccc(Cl)cc2)n2nc(NS(=O)(=O)c3ccc(F)cc3)nc2N1 (centres undefined)
    -10	i	0.99	-19	59	103	-1.9
CCN(/N=C/C=C/c1ccccc1)c1cc(=O)n(C)c(=O)[nH]1
    -3	i	0.96	-26	137	99	-0.6

# Other compounds.
# The line under a structure holds: PKD1 inh	HSV augment	HSV augment primary fold	INS promoter inh	INS promoter inh cell count	RGS16-Gao HTS	GALR2 agonist
CC(NC(=O)c1ccccc1)c1ccc(F)cc1 (centres undefined)
    -7	i	0.84	-53	58	118	-0.2
NC(=O)c1ncc(C(F)(F)F)cc1Oc1ccc(F)cc1
    -9	i	1.2	-10	154	105	-3.9
COc1ccccc1NC(=O)Cc1csc(NC(=S)Nc2ccccc2)n1
    -12	i	0.81	·	·	105	-2.5
Cc1ccc(-c2nn(-c3cc(Cl)ccc3[N+](=O)[O-])c(=O)c3ccccc23)cc1C
    -3	i	1	-20	133	102	-1.7
CCS(=O)(=O)N1CCC(C(=O)N2CCc3ccccc3C2)CC1
    -7	·	·	·	·	131	-2.9
CCOc1ccc2[nH]c(=O)c(CN(Cc3ccc(F)cc3)C(=O)N3CCCC3)cc2c1
    -5	i	0.77	-50	66	99	-0.4
Cc1nnc(-c2cnn(C)c2N)n1CCCN1CCOCC1
    1	i	0.98	·	·	102	·
Cn1c(=O)n(CCc2ccccc2)c(=O)c2c1nc1n2CCCN1Cc1ccccc1
    3	i	0.92	0	103	53	0.3
COc1ccc(C2CC(c3ccccc3)=NN2C(=O)COC(=O)c2cccnc2)cc1 (centres undefined)
    -2	i	1.4	·	·	94	-2.2
O=C(NNc1ccccc1)/C(=C\c1cccnc1)NC(=O)c1ccccc1
    ·	i	0.96	·	·	102	·
O=C(N/N=C/c1ccc(COc2ccc(Br)cc2)o1)c1ccco1
    8	i	0.85	-39	98	105	-0.6
Cc1c(C)c(C)c(S(=O)(=O)N2CCSCC2)c(C)c1C
    ·	i	1	·	·	90	·
CN(C1=C(NC(=O)c2ccc(Cl)cc2)C(=O)c2ccccc2C1=O)c1ccccc1
    2	i	0.68	·	·	110	-3.1
CCN(c1cccc(C)c1)S(=O)(=O)c1cccc2nsnc12
    -9	·	·	-19	53	99	-1.1
Cc1ccc(S(=O)(=O)NCCC(=O)Nc2ccc(Cl)c(Cl)c2)cc1
    1	i	0.95	38	94	139	-2.0
O=c1nc(Nc2ccccc2)sc2ccc([N+](=O)[O-])cc12
    -1	i	1.2	·	·	85	-0.4
O=C(COC(=O)c1ccc2c(c1)S(=O)(=O)N=C1CCCCCN12)NCc1cccs1
    ·	i	0.92	·	·	97	·
O=C(CNC(=O)C1CCCCC1)Nc1cc(Cl)ccc1Cl
    6	i	0.92	17	119	98	-1.9
Cc1ccccc1Nc1nc(N)nc(CN2CCN(Cc3ccc4c(c3)OCO4)CC2)n1
    6	i	0.93	·	·	97	·
Nc1c(S(=O)(=O)c2ccccc2)c2nc3ccccc3nc2n1C1CC1
    -3	i	0.99	·	·	103	·
COc1cc(Cl)c(C)cc1NC(=O)CSc1nnc(-c2ccco2)n1CC(C)C
    -9	i	0.9	·	·	91	0.0
O=C(/C=C1\NC2(CCCC2)Cc2ccccc21)N1CCOCC1
    -10	i	1	-57	107	102	-5.2

# Shown with bars between the fields: part of the list above.
smiles | PKD1 inh | HSV augment | HSV augment primary fold | INS promoter inh | INS promoter inh cell count | RGS16-Gao HTS | GALR2 agonist
NC(=O)c1ncc(C(F)(F)F)cc1Oc1ccc(F)cc1 | -9 | i | 1.2 | -10 | 154 | 105 | -3.9
COc1ccccc1NC(=O)Cc1csc(NC(=S)Nc2ccccc2)n1 | -12 | i | 0.81 | · | · | 105 | -2.5
Cc1ccc(-c2nn(-c3cc(Cl)ccc3[N+](=O)[O-])c(=O)c3ccccc23)cc1C | -3 | i | 1 | -20 | 133 | 102 | -1.7
CCS(=O)(=O)N1CCC(C(=O)N2CCc3ccccc3C2)CC1 | -7 | · | · | · | · | 131 | -2.9
CCOc1ccc2[nH]c(=O)c(CN(Cc3ccc(F)cc3)C(=O)N3CCCC3)cc2c1 | -5 | i | 0.77 | -50 | 66 | 99 | -0.4
Cc1nnc(-c2cnn(C)c2N)n1CCCN1CCOCC1 | 1 | i | 0.98 | · | · | 102 | ·
Cn1c(=O)n(CCc2ccccc2)c(=O)c2c1nc1n2CCCN1Cc1ccccc1 | 3 | i | 0.92 | 0 | 103 | 53 | 0.3
COc1ccc(C2CC(c3ccccc3)=NN2C(=O)COC(=O)c2cccnc2)cc1 (centres undefined) | -2 | i | 1.4 | · | · | 94 | -2.2
O=C(NNc1ccccc1)/C(=C\c1cccnc1)NC(=O)c1ccccc1 | · | i | 0.96 | · | · | 102 | ·
O=C(N/N=C/c1ccc(COc2ccc(Br)cc2)o1)c1ccco1 | 8 | i | 0.85 | -39 | 98 | 105 | -0.6
Cc1c(C)c(C)c(S(=O)(=O)N2CCSCC2)c(C)c1C | · | i | 1 | · | · | 90 | ·
CN(C1=C(NC(=O)c2ccc(Cl)cc2)C(=O)c2ccccc2C1=O)c1ccccc1 | 2 | i | 0.68 | · | · | 110 | -3.1
CCN(c1cccc(C)c1)S(=O)(=O)c1cccc2nsnc12 | -9 | · | · | -19 | 53 | 99 | -1.1
Cc1ccc(S(=O)(=O)NCCC(=O)Nc2ccc(Cl)c(Cl)c2)cc1 | 1 | i | 0.95 | 38 | 94 | 139 | -2.0
O=c1nc(Nc2ccccc2)sc2ccc([N+](=O)[O-])cc12 | -1 | i | 1.2 | · | · | 85 | -0.4
O=C(COC(=O)c1ccc2c(c1)S(=O)(=O)N=C1CCCCCN12)NCc1cccs1 | · | i | 0.92 | · | · | 97 | ·
O=C(CNC(=O)C1CCCCC1)Nc1cc(Cl)ccc1Cl | 6 | i | 0.92 | 17 | 119 | 98 | -1.9
Cc1ccccc1Nc1nc(N)nc(CN2CCN(Cc3ccc4c(c3)OCO4)CC2)n1 | 6 | i | 0.93 | · | · | 97 | ·
